D2 agonist – activates the human D2 dopamine receptor; AID 624465; 360,000 compounds, 0.084% hits; P14416; DiscoveRx PathHunter D2 beta-arrestin, luminescence, 90 min; 100% = 57 uM dopamine signal; activation, % (concentration not given with the values); in the data active = activation above about 40%; inconclusive = about 15% to 40%; inactive = below about 15%; further: the text of the record calls up to 30% inactive
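Agonist mode: compounds alone added to overnight-plated D2 PathHunter cells for 90 min at 37 C, with 57 uM final dopamine (EC100) defining full response. Beta-arrestin recruitment detected by chemiluminescent reagent, read after 1 h at ambient temperature.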
Sfp inh – Sfp phosphopantetheinyl transferase inhibition; Potency, µM, without a hit: max response, negative = inhibition, usual class: inhibitors; Q9F4F7; 310,000 compounds, 3.5% hits; Biochemical Sfp PPTase activity, qHTS; active means well fitted inhibition curve with a large enough effect; inconclusive means small, poorly fitted or top-dose-only effect, or another doubt; inactive means no such curve, though single readings can be large or run the other way;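 further: the enzyme is Sfp with the accession as filed and its product quenches rhodamine fluorescence; potency means the concentration at half of the fitted maximal effect; 0% = enzyme reaction without inhibitor and -100% = no enzyme wells; top concentration of the series not given in the record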
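Step 1, compound plus 15 nM Sfp-PPTase, 15 min, room temperature. Step 2, add rhodamine-CoA (5 uM) and BHQ-2-YbbR (12.5 uM). Step 3, read 525/598 nm fluorescence at 0 and 30 min.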
Six1-Eya2 blk – Six1/Eya2 interaction inhibition; AlphaScreen GST-Six1/His-Eya2 binding, biochemical; stronger effect = lower value; control for the full effect not named in the record; activity change, % (test concentration not listed); 360,000 compounds, 0.56% hits; AID 651725; in the data active = activity change below about -65%; inconclusive = about -30% to -65%; inactive = above about -30%; further: on the % scale 0 is the no-effect control and ±100 the full control effect
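GST-Six1 + His-Eya2 (5X stock: 250/500 nM); Tris pH 8.0, 300 mM NaCl, 0.05% BSA, 0.02% Tween 20; GSH donor/Ni acceptor beads; 1 h 37 °C dark; AlphaScreen readout.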
D2 PAM – positive allosteric modulators of human D2 dopamine receptor; P14416; DiscoveRx D2 beta-arrestin cells, luminescence, 90 min; 100% = 57 uM dopamine signal; potentiation, % (test concentration not listed); 360,000 compounds, 0.23% hits; AID 624464; active = potentiation of 50% or more; inconclusive = 30% to 50%; inactive = 30% or less;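 further: compound concentration not given in the record; tested on top of an EC20 dose of dopamine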
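PathHunter D2 cells, attached overnight at 37 deg C, received compound in DMSO plus dopamine at EC20 (50 nM final) for 90 min at 37 deg C. Beta-arrestin recruitment was read as luminescence after 1 h with detection reagent at ambient temperature.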
TRPV1 PAM – potentiators of human vanilloid receptor 1 (TRPV1). Q8NER1. TRPV1-expressing cells, Fluo-8 calcium influx, capsaicin EC20 potentiation; host cell line not named in the record; control for the full effect not named in the record. potentiation, % at 8.33 µM. 320,000 compounds, 0.02% hits. AID 540277; active means potentiation above 80%; inconclusive means 30% to 80%; inactive means below 30%; further: 0% is about no effect
Target sequence (Q8NER1 whole entry, looked up): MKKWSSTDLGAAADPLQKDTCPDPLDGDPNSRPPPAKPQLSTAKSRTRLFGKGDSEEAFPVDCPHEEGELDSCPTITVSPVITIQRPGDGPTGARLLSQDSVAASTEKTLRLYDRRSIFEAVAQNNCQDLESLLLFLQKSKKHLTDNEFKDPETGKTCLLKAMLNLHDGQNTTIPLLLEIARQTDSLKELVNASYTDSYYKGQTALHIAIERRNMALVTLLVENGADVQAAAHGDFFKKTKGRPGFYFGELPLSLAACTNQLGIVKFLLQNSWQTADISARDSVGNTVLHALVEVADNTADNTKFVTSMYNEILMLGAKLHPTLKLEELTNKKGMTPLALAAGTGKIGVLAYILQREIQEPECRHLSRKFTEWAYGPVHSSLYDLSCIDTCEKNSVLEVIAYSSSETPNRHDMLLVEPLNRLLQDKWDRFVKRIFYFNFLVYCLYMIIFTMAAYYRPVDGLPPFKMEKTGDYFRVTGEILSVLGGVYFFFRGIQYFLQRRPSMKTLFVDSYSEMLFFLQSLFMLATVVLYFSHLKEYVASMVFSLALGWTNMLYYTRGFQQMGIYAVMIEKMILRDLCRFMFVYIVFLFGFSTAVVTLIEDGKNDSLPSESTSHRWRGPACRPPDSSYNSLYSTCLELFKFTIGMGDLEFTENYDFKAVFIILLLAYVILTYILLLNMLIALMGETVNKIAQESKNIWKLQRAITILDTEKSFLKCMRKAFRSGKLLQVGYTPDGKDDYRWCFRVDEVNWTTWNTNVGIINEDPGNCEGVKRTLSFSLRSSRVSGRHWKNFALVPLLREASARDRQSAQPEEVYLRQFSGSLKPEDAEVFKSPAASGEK
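TRPV1-expressing cells were cultured overnight at 35.5C and loaded with Fluo-8 calcium dye for 40 to 90 min at room temperature. After a 10 s baseline, compound was added and calcium influx was read kinetically for 3 min (ex 480/em 520 nm).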
PINK1 modulator – PINK1 expression modulation; PINK1 immunofluorescence, high-content cytometry, 24 h; Potency, µM (doses to about 76.6 µM), for the others: at the highest dose activation (PINK1 increase), usual class: activators; 410,000 compounds, 0.2% hits; AID 624263; active = well fitted activation curve with a large enough effect; inconclusive = small, poorly fitted or top-dose-only effect; inactive = flat fitted curve, though single readings scatter; cell line not stated here;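 further: potency means the concentration at half of the fitted maximal effect; % of control where 0% means no effect; nearly all actives have a fitted effect of over 65% in size; a mitochondrial uncoupler was the plate control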
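PINK1 protein, normally rapidly degraded, was detected by immunofluorescence after 24 hour compound treatment of a stable cell line. Titration data (5 concentrations) came from laser-scanning cytometry, with CCCP-treated wells as controls.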
CtBP-E1A blk – inhibitors of CtBP/E1A interaction. AlphaScreen GST-E1A/His-CtBP binding, 1536-well; stronger effect = lower value; control for the full effect not named in the record. activity change, % (concentration not given with the values). 340,000 compounds, 0.49% hits; in the data active means activity change below about -65%; inconclusive means about -30% to -65%; inactive means above about -30%; further: on the % scale 0 is the no-effect control and ±100 the full control effect
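Steps: dispense buffer (Tris pH 8.0, NaCl 300 mM, TCEP 1 mM, BSA, Tween 20); add 5X protein mix (GST-E1A, His-CtBP, 125 nM each); pin 23 nL compound; 2 h at 37 °C, dark; add 5X beads (50 ug/mL); 1 h; read.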
An asterisk follows results filed as active; ? = inconclusive; / = not tested or not shown; & = joins results of further samples; [ ] = remark or other dose. Hits appear at their usual frequency; any-hit rate near 3.7%.

Results follow in this order: TRPV1 PAM | D2 agonist | Six1-Eya2 blk | PINK1 modulator | Sfp inh | D2 PAM | CtBP-E1A blk
1	CCC(C)NC(=O)c1cn(CC)c2ccc(S(=O)(=O)N3CCCCCC3)cc2c1=O (stereo unspecified)
 : -21.8 | 3.1 | 4.3 | 0.9% | 0.3% | 15.1 | -16.9
2	Cc1cc(C)c(N2CCN(S(=O)(=O)N3CCCCCC3)CC2)c(C)c1
 : -0.6 | -0.8 | 15.4 | ? | ? | 3.3 | 4.6
3	CC1=CCC2C(=O)N(c3ccc4ccccc4n3)C(=O)C2C1 (stereo unspecified)
 : ? | -0.6 | 15.3 | 0.3% | -0.2% | 23.6 | 9.1
4	C[C@@H]1CN([C@H](C)CO)C(=O)c2cccc(NS(=O)(=O)c3ccccc3)c2O[C@H]1CN(C)C
 : / | -0.9 | 3.4 | 1.0% | / | / | 0.1
5	O=C(NC1CCCCC1)C(c1ccncc1)N(C(=O)Cn1nnc(-c2cccs2)n1)C1CCCC1 (stereo unspecified)
 : -3.2 | 0.6 | -1.1 | -1.8%[38.3 µM] | 1.1% | -3.9 | -7.0
6	COc1ccc(C(=O)N(CN2CCCC2=O)c2cc(C)on2)cc1OC
 : ? | -1.6 | 4.6 | 0.0% | 17.8% | -0.8 | 2.6
7	CS(=O)(=O)c1ccc(NCCc2ccc(S(N)(=O)=O)cc2)c([N+](=O)[O-])c1
 : 4.9 | -0.9 | 1.2 | -2.6% | 9.1% | -3.1 | 9.5
8	Cc1ccc(C)c(S(=O)(=O)Nc2ccc3oc(C)c(C(=O)O)c3c2)c1
 : 11.2 | 3.5 | -5.5 | 1.6% | -11.9% | 0.8 | -0.2
9	Cc1nc([N+](=O)[O-])c(Br)n1CC(=O)c1ccc(Br)cc1
 : -3.6 | 0.4 | 4.4 | -1.3% | 3.4% | -4.9 | -0.7
10	O=C(NCCCNC(=O)c1cnccn1)c1cccc(Cl)c1
 : -21.8 | 0.2 | 0.1 | -1.9% | 18.1% | -9.1 | 8.5
11	O=C(COC(=O)C1CC1)Nc1ncc(C(F)(F)F)cc1Cl
 : 1.6 | -1.5 | -2.5 | -0.3% | 7.0% | -6.7 | 4.2
12	C=C(C)c1cccc(C(C)(C)NC(=O)N(Cc2ccccc2)Cc2ccco2)c1
 : 14.9 | -0.4 | -6.9 | 5.7% | 5.0% | -0.8 | 0.5
13	COc1cccc(-n2c(N)cc(=O)nc2SCC(=O)N2CCN(c3ccccc3)CC2)c1
 : 3.1 | -2.0 | -0.4 | 0.1% | 15.3% | -6.1 | 7.8
14	CC(C(=O)OCC(=O)Nc1ccc(S(N)(=O)=O)cc1)N1C(=O)c2ccccc2C1=O (stereo unspecified)
 : / | 0.9 | 7.3 | 1.3% | / | 5.8 | 1.5
15	O=C(CN1CCOCC1)Nc1ccccc1-c1ccccc1
 : 1.1 | -3.2 | 13.2 | -1.4% | 3.9% | 9.0 | 4.8
16	C=CCc1cccc2cc(C(=O)OCC(=O)c3ccccc3)c(=O)oc12
 : 0.5 | -1.4 | 0.9 | 8.4% | -0.5% | -15.4 | -0.6
17	CC1CC(C)CN(C(=O)CN2C(=O)NC3(CCCCCCC3)C2=O)C1 (stereo unspecified)
 : 5.9 | -1.3 | -0.2 | -0.7% | / | 0.7 | -10.2
18	CC(C)CNc1nnnc2c1sc1nc(N3CCOCC3)c3c(c12)CC(C)(C)SC3
 : -14.2 | -3.3 | -8.8 | -0.2% | 9.1% | -19.2 | 4.6
19	O=C(CCCN1C(=O)c2cccc3cccc(c23)C1=O)NC1CCS(=O)(=O)C1 (stereo unspecified)
 : 13.6 | -1.1 | 8.3 | 2.8% | 8.3% | -4.8 | /
20	O=C(CCNC(=O)c1ccccc1)NC1CCCc2ccccc21 (stereo unspecified)
 : 8.5 | 2.1 | 9.7 | 0.3% | / | 0.0 | -2.8
21	OCC[C@H]1C[C@@H](O)[C@H](O)[C@]2(CCc3ccccc3CO2)O1
 : -6.5 | -1.2 | 0.4 | 0.3% | / | 0.2 | 2.3
22	O=C(NCCCCCCNC(=O)c1ccc(Br)s1)c1ccc(Br)s1
 : -19.7 | -0.9 | 4.8 | ? | -14.2% | -14.6 | -1.2
23	Cc1cc2nc(C)c(=O)n(C)c2cc1C
 : -1.9 | -3.9 | -6.3 | 0.8% | 0.5% | -0.7 | 1.4
24	Oc1ccccc1Cn1nnc2ccccc21
 : -8.6 | 3.6 | -2.3 | 2.7% | 8.6% | 2.4 | -20.7
25	CCOC(=O)c1c(NC(C)=O)sc2c(OC(C)=O)cccc12
 : -10.3 | -0.6 | 5.1 | / | 9.3% | -4.8 | 12.3
26	O=C1OC(c2ccccc2)c2ccccc21 (stereo unspecified)
 : 1.2 | -3.7 | 5.9 | 1.9% | -12.3% | -9.4 | 11.1
27	O=C(OCCCOc1ccc(F)cc1)c1ccc(O)cc1O
 : 22.9 | -0.4 | -1.6 | 8.7% | 4.8% | 6.2 | 3.8
28	Cc1ccc(NC(=O)CSc2nnc(-c3cnccn3)n2Cc2ccco2)cc1
 : 0.9 | -2.1 | -2.3 | -2.7%[38.3 µM] | 20µM* | -14.3 | -8.3
29	Cc1ccc(C(=O)/C=C/N(C)C)o1
 : ? | -1.0 | 0.1 | 3.5% | 14.5% | -0.1 | 2.1
30	COC(=O)c1ccc2nc(-c3ccc(Cl)cc3)c(CC3CCCCC3)n2c1
 : / | / | 13.5 | 1.7% | / | / | -2.8
31	N/C(=N\OC(=O)c1ccc2ccccc2c1)c1ccc(Br)cc1
 : ? | 13.6 | -3.7 | -1.1% | 5.8% | 15.5 | 0.0
32	CCc1nc(SCc2ccc(Cl)cc2)n[nH]1
 : 8.2 | -0.5 | 7.5 | 1.0% | 7.5% | -0.2 | 13.9
33	CCNC(=O)C1CCCN(C(=O)c2ccccc2OC(F)(F)F)CC1 (stereo unspecified)
 : / | -4.3 | -0.2 | 1.0% | / | -5.1 | 6.5
34	CCOc1ccccc1CNS(=O)(=O)c1csc(C(N)=O)c1
 : -7.9 | -0.5 | 1.2 | 0.2%&0.5% | -2.9% | -7.7 | 5.8
35	Cc1ccc(C(CC(=O)N2CCCCC2)c2ccccc2)c(O)c1C (stereo unspecified)
 : -0.3 | 0.5 | 2.8 | 0.3% | -6.4% | -1.7 | -5.0
36	O=C(NCc1ccncc1)C(=O)NCC(c1ccco1)N1CCN(c2ccccc2F)CC1 (stereo unspecified)
 : -11.3 | 7.2 | 2.0 | -0.9% | 18.3% | -1.2 | 1.4
37	COC(=O)C1=C(C)NC(=S)N(C(C)=O)C1c1ccccc1 (stereo unspecified)
 : 9.5 | -0.6 | -1.9 | 7.2% | 8.4% | -1.7 | 4.3
38	COc1ccc(CNC(=O)C[C@H]2C[C@H](C(=O)N3CCOCC3)[C@@]3(C)c4[nH]c5ccc(Cl)cc5c4CCN3C2=O)cc1OC
 : / | 1.0 | -0.1 | 0.9% | / | / | -4.7
39	CC(=O)Nc1ccc(-c2csc(NNC(=O)c3ccc(C)cc3)n2)cc1
 : 5.4 | -6.8 | -4.7 | 3.4% | 7.94µM* | -12.5 | /
40	O=C(c1cc(-c2cccc(Cl)c2)on1)N1CCc2ccccc2C1
 : 26.1 | -2.5 | 8.0 | 2.2% | 3.0% | 3.5 | 6.0

Fetched by structure from the list above, 3 records:
Results follow in this order: TRPV1 PAM | D2 agonist | Six1-Eya2 blk | PINK1 modulator | Sfp inh | D2 PAM | CtBP-E1A blk
38	COc1ccc(CNC(=O)C[C@H]2C[C@H](C(=O)N3CCOCC3)[C@@]3(C)c4[nH]c5ccc(Cl)cc5c4CCN3C2=O)cc1OC
 : / | 1.0 | -0.1 | 0.9% | / | / | -4.7
29	Cc1ccc(C(=O)/C=C/N(C)C)o1
 : ? | -1.0 | 0.1 | 3.5% | 14.5% | -0.1 | 2.1
28	Cc1ccc(NC(=O)CSc2nnc(-c3cnccn3)n2Cc2ccco2)cc1
 : 0.9 | -2.1 | -2.3 | -2.7%[38.3 µM] | 20µM* | -14.3 | -8.3

Continued:
Results follow in this order: TRPV1 PAM | D2 agonist | Six1-Eya2 blk | PINK1 modulator | Sfp inh | D2 PAM | CtBP-E1A blk
41	CC(=O)c1cnn(-c2c(Cl)cc(Cl)cc2Cl)c1C
 : -30.3 | -0.1 | 5.3 | 1.9% | 0.0% | -0.9 | /
42	Cc1ccc(-c2csc(NC(=O)CN3CCOCC3)n2)cc1C
 : -14.1 | 3.3 | -8.6 | 8.4% | 2.4% | -2.4 | -4.1
43	O=[N+]([O-])c1ccc(N2CCN(Cc3ccccc3)CC2)c2c1no[n+]2[O-]
 : / | ? | -12.3 | 1.3% | / | -18.6 | -12.4
44	C[C@H](CO)N1C[C@H](C)[C@@H](CN(C)S(C)(=O)=O)Oc2ccc(NS(=O)(=O)c3cn(C)cn3)cc2C1=O
 : / | -2.6 | 3.4 | -1.0% | / | 1.5 | -1.2
45	COc1ccc(CCNC(=O)COC(=O)c2cc(OC)c(OC)cc2OC)cc1OC
 : 13.1 | -2.0 | 2.1 | -1.2% | 15.9% | -8.3 | 0.1
46	Cc1cc(C(=O)N2CCCC(N3CCN(c4cccc(C(F)(F)F)c4)CC3)C2)n[nH]1 (stereo unspecified)
 : 11.6 | 0.0 | 1.1 | -0.2% | 22.5% | -17.1 | -1.4
47	Cc1cnc(C(=O)OCC(=O)Nc2ccc(Cl)cc2Cl)cn1
 : 4.1 | -2.2 | 1.1 | -0.9% | 2.0% | -8.5 | -0.1
48	COc1ccc(NC(=O)C2OCCc3ccccc32)c(OC)c1 (stereo unspecified)
 : -4.9 | 0.1 | 6.8 | -1.7% | -1.9% | -9.1 | -2.1
49	O=C(/C=C/c1ccco1)NCc1ccccn1
 : 1.3 | -5.9 | -2.7 | 0.2% | -64.7% | -5.4 | /
50	O=C(NCC1CCN(C(=O)c2ccc([N+](=O)[O-])cc2)CC1)c1ccc([N+](=O)[O-])cc1
 : 1.1 | 4.0 | -13.8 | -0.2% | 3.7% | -0.8 | -7.1

Only TRPV1 PAM, Sfp inh and Six1-Eya2 blk (4 entries from above):
| # | structure | TRPV1 PAM | Sfp inh | Six1-Eya2 blk |
| --- | --- | --- | --- | --- |
| 47 | Cc1cnc(C(=O)OCC(=O)Nc2ccc(Cl)cc2Cl)cn1 | 4.1 | 2.0% | 1.1 |
| 48 | COc1ccc(NC(=O)C2OCCc3ccccc32)c(OC)c1 (stereo unspecified) | -4.9 | -1.9% | 6.8 |
| 49 | O=C(/C=C/c1ccco1)NCc1ccccn1 | 1.3 | -64.7% | -2.7 |
| 50 | O=C(NCC1CCN(C(=O)c2ccc([N+](=O)[O-])cc2)CC1)c1ccc([N+](=O)[O-])cc1 | 1.1 | 3.7% | -13.8 |
